Screening data (PubChem)
HCMV NEC inh – inhibitors of HCMV UL50-UL53 interaction, biochemical, HTRF; inhibition, % (no concentration beside the values); 0.15% of 190,000 active; AID 1918969, 2023; normalized percent inhibition;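 active = both replicates at 50% or more, plus weaker picks with an unusually low signal ratio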;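 also: stock transfer was 100 nL into about 20 µL; 0% = negative control wells and 100% = wells with untagged competitor protein; inactives centre near -12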
GIV Gai3 FP – inhibitors of GIV peptide binding to Galpha-i3, primary screen, biochemical, fluorescence polarization, FITC-GIV GBA peptide, rat Galphai3 | 0.42% of 210,000 active | 90 min; stronger effect = lower value; scaled: aluminum fluoride 0%, vehicle 100% | AID 1224905, 2016 | percent of control (FP), % (test concentration not listed) | Guanine nucleotide-binding protein G(i) subunit alpha-3 (Rattus norvegicus), P08753;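 active = replicate mean at 85% of control or lower, very high polarization wells dropped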;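 also: wells of about 15 µL received 100 nL stock; the first replicate is given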
Target sequence (P08753 whole entry, looked up): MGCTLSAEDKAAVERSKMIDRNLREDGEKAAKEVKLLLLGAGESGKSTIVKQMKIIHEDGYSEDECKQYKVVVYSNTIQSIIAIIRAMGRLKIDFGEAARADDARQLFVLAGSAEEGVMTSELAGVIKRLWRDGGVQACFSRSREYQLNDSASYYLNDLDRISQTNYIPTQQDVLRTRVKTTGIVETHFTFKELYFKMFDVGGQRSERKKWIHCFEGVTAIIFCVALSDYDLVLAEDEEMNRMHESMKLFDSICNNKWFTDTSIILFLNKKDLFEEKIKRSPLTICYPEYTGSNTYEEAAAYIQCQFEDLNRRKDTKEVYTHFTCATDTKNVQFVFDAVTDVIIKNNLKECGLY
Sa growth inh – S. aureus growth inhibition at 42 and 30 °C, primary screen, LtaS inhibitor project, RN4220, two temperatures | AID 720641, 2013 | relative growth, % (test concentration not listed) | OD600, 20 h, 42 °C; stronger effect = lower value | 0.53% of 170,000 active;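 active = growth at 42 °C up to 50% and 20 or more points under that at 30 °C, or under 10% at both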;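 also: 300 nL library stock went into each well; scaled to the means of positive and negative controls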
Sa growth inh second temp – further read-out of Sa growth inh, marked with its call; relative growth, %; measured here: growth at 30 °C;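 optical density after 20 h as mean of two plates; 100% = untreated growth and lower means inhibition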
An asterisk follows results filed as active; & = joins results of further samples.

Sample of the layout (3 entries):
`COC(=O)c1ccc2nc(C)ccc2c1` gave HCMV NEC inh -12, Sa growth inh 95 and Sa growth inh second temp 86.
Screening FC(F)(F)c1cccc(N2Cc3ccccc3C2)c1 returned HCMV NEC inh -8, GIV Gai3 FP 103, Sa growth inh 95 and Sa growth inh second temp 81.
`COC(=O)c1cccnc1NC(=S)NC1CCCCC1` gave HCMV NEC inh -15, GIV Gai3 FP 92, Sa growth inh 110 and Sa growth inh second temp 94.

The listing, from the start:
`COC(=O)c1ccc2nc(C)ccc2c1` gave HCMV NEC inh -12, Sa growth inh 95 and Sa growth inh second temp 86.
Screening FC(F)(F)c1cccc(N2Cc3ccccc3C2)c1 returned HCMV NEC inh -8, GIV Gai3 FP 103, Sa growth inh 95 and Sa growth inh second temp 81.
`COC(=O)c1cccnc1NC(=S)NC1CCCCC1` gave HCMV NEC inh -15, GIV Gai3 FP 92, Sa growth inh 110 and Sa growth inh second temp 94.
For COc1ccc(-c2cc(C(=O)NCc3ccccc3)c3c(-c4ccccc4)[nH]nc3n2)cc1 the results were GIV Gai3 FP 96, Sa growth inh 72 and Sa growth inh second temp 88.
For Cc1ccc2nc(SCC(=O)Nc3cccc(Cl)c3C)[nH]c2c1 the results were HCMV NEC inh -7 and GIV Gai3 FP 106.
For CCOC(=O)N1CCc2c(sc(NC(=O)c3ccco3)c2C(=O)Nc2cc(OC)ccc2OC)C1 the results were HCMV NEC inh -14, GIV Gai3 FP 98, Sa growth inh 104 and Sa growth inh second temp 76.
Cc1nc(N2CCN(c3ccccn3)CC2)c2c(C)c(C(=O)N3CCOCC3)sc2n1 was read as HCMV NEC inh 11 and GIV Gai3 FP 113.
`CCOC(=O)c1cnc2ccccc2c1NCCc1ccc(OC)c(OC)c1` gave HCMV NEC inh 8, GIV Gai3 FP 110, Sa growth inh 107 and Sa growth inh second temp 76.
COC(=O)c1cccc(NC(=O)CSc2ncccn2)c1 was read as HCMV NEC inh 13, GIV Gai3 FP 104, Sa growth inh 103 and Sa growth inh second temp 81.
For O=C(NCc1ccccc1F)C(=O)NCC(c1cccs1)S(=O)(=O)c1cccs1 (stereo unspecified) the results were GIV Gai3 FP 99, Sa growth inh 94 and Sa growth inh second temp 88.
COc1ccc2c(c1)c(N1CCCC1=O)c(C(=O)Nc1ccccc1C(F)(F)F)n2C was read as GIV Gai3 FP 106, Sa growth inh 114 and Sa growth inh second temp 90.
For Cc1nc(Nc2ccc(NS(=O)(=O)c3ccc4c(c3)OCCO4)cc2)cc(N2CCCC2)n1 the results were HCMV NEC inh -2 and GIV Gai3 FP 101.
`Cc1csc2c(N3CCN(C(=O)c4ccc(Cl)cc4)CC3)ncnc12` gave HCMV NEC inh -26, GIV Gai3 FP 104, Sa growth inh 99 and Sa growth inh second temp 86.
`CCOc1ccc(S(=O)(=O)N(C)CC(=O)NC2CCCCC2)cc1C` gave HCMV NEC inh -34, GIV Gai3 FP 105, Sa growth inh 118 and Sa growth inh second temp 102.
Screening CC(C)OC(=O)c1c(NC(=O)COc2cccc(Br)c2)sc2c1CCCC2 returned HCMV NEC inh 10, GIV Gai3 FP 105, Sa growth inh 97 and Sa growth inh second temp 98.
Cc1ccccc1Cn1c(=O)n(Cc2ccc3c(c2)OCO3)c(=O)c2oc3ccccc3c21 was read as GIV Gai3 FP 112, Sa growth inh 98 and Sa growth inh second temp 96.
`COc1ccc(CCCc2nnc(SCC(=O)Nc3cccc(C)c3)o2)cc1C` gave HCMV NEC inh 6, GIV Gai3 FP 105, Sa growth inh 102 and Sa growth inh second temp 96.
For Cc1ccc(-n2c(=O)c3c(cnn3C)n(CC(=O)Nc3ccc(C)cc3C)c2=O)cc1 the results were HCMV NEC inh -3&-7, GIV Gai3 FP 95&101, Sa growth inh 93 and Sa growth inh second temp 85.
For CCCCC1CCC(C(=O)Nc2nonc2-c2ccc(OCC)c(OCC)c2)CC1 (stereo unspecified) the results were GIV Gai3 FP 99, Sa growth inh 94 and Sa growth inh second temp 89.
COc1ccc(CNC(=O)CN2CC(C)CC(C)C2)c(OC)c1 (stereo unspecified) was read as HCMV NEC inh -9, GIV Gai3 FP 103, Sa growth inh 104 and Sa growth inh second temp 85.
`COc1ccccc1NC(=O)N1CCN(Cc2ccccc2)CC1` gave HCMV NEC inh -6, GIV Gai3 FP 106, Sa growth inh 110 and Sa growth inh second temp 96.
`CC(=O)Nc1ccc(C(=O)OCC(=O)N2CCc3ccccc3C2)cc1` gave HCMV NEC inh -15, Sa growth inh 107 and Sa growth inh second temp 89.
For CCc1ccc(S(=O)(=O)c2nnn3c2nc(Nc2ccc(F)cc2)c2cc(Cl)ccc23)cc1 the results were HCMV NEC inh -5, GIV Gai3 FP 108, Sa growth inh 107 and Sa growth inh second temp 82.
`O=C1CS/C(=N\N=C2C3CC4CC(C3)CC2C4)N1` gave HCMV NEC inh -7, GIV Gai3 FP 100, Sa growth inh 144 and Sa growth inh second temp 93.
For COC(=O)C1=C(Nc2ccccc2NC(=O)c2ccccc2C(=O)O)CSC1 the results were HCMV NEC inh -28, GIV Gai3 FP 95, Sa growth inh 103 and Sa growth inh second temp 88.
Screening CCOC(=O)N1CCN(C(=O)C(NC(=O)c2ccc(C(C)(C)C)cc2)C(C)C)CC1 (stereo unspecified) returned HCMV NEC inh -3, Sa growth inh 101 and Sa growth inh second temp 94.
Screening COc1cccc(-c2ocnc2C(=O)Nc2ccc(N3Cc4ccccc4C3)cc2)c1 returned HCMV NEC inh 4, GIV Gai3 FP 101, Sa growth inh 104 and Sa growth inh second temp 65.
`CCOP(=O)(/C(C#N)=C(\C)O)c1ccccc1` (stereo unspecified) gave HCMV NEC inh -22, Sa growth inh 101 and Sa growth inh second temp 90.
Screening COc1ccccc1N1CCN(C(CNC(=O)C(=O)NCc2cccnc2)c2cccnc2)CC1 (stereo unspecified) returned HCMV NEC inh -13, GIV Gai3 FP 105, Sa growth inh 94 and Sa growth inh second temp 84.
CN1CCN(C(c2ccccc2Cl)c2sc3nc(-c4ccco4)nn3c2O)CC1 (stereo unspecified) was read as GIV Gai3 FP 103, Sa growth inh 98 and Sa growth inh second temp 99.
CCN(Cc1ccccc1)C(=O)Cn1c(=O)n(-c2ccc(Cl)c(Cl)c2)c(=O)c2c(C)c(C(=O)N(C)C)sc21 was read as GIV Gai3 FP 101, Sa growth inh 110 and Sa growth inh second temp 92.
O=c1cc(O)cc(/C=C/c2ccc(O)c(O)c2)o1 was read as HCMV NEC inh -121 and GIV Gai3 FP 106.
For O=C(NCCC1=CCCCC1)c1ccc2c(c1)N(Cc1ccc(F)cc1)C(=O)c1ccccc1S2(=O)=O the results were HCMV NEC inh 13, GIV Gai3 FP 108, Sa growth inh 120 and Sa growth inh second temp 108.
`CN1CCc2c(sc(-n3cccc3)c2CNC(=O)NCc2ccccc2)C1` gave HCMV NEC inh 11, GIV Gai3 FP 107, Sa growth inh 110 and Sa growth inh second temp 109.
COc1cc(NC(=O)CN2C(=O)C(C)(C)c3ccccc32)cc(OC)c1 was read as HCMV NEC inh 1 and GIV Gai3 FP 95.
Screening COc1ccc(CNC(=O)C2CCN(S(=O)(=O)c3cn(C)cn3)CC2)cc1 returned GIV Gai3 FP 96, Sa growth inh 111 and Sa growth inh second temp 90.
`CC(C)C(=O)Nc1ccccc1C(=O)OCc1cc(=O)n2nc(C3CC3)sc2n1` gave GIV Gai3 FP 107, Sa growth inh 110 and Sa growth inh second temp 91.
Cc1ccc(NC(=O)C2CCCN(S(=O)(=O)c3ccc4c(c3)CC(C)N4C(=O)C3CC3)C2)nc1 (stereo unspecified) was read as GIV Gai3 FP 101, Sa growth inh 101 and Sa growth inh second temp 87.
For CC(CCc1ccccc1)NC(=O)CN1CC(C)OC(C)C1 (stereo unspecified) the results were HCMV NEC inh -13, Sa growth inh 91 and Sa growth inh second temp 97.
`Cc1cc(NC(=O)c2cc(-c3cccc(O)c3)on2)no1` gave HCMV NEC inh -16, GIV Gai3 FP 102, Sa growth inh 113 and Sa growth inh second temp 86.
Screening O=C(NNc1ncnc2sc3c(c12)CCCC3)c1ccccc1-n1cccc1 returned HCMV NEC inh -14, Sa growth inh 79 and Sa growth inh second temp 77.
`CN(C)/N=C(\NO)c1c(F)cccc1Cl` gave HCMV NEC inh -21, GIV Gai3 FP 106, Sa growth inh 121 and Sa growth inh second temp 91.
Screening FC(F)(F)c1cc(Br)cc(Br)c1 returned HCMV NEC inh -6, Sa growth inh 97 and Sa growth inh second temp 94.
Screening COc1ccc(NC(=O)NCc2c(C)nn(-c3ccccc3)c2-n2cccc2)cc1 returned HCMV NEC inh -1 and GIV Gai3 FP 101.
For CC1=NN(CCC#N)C(=O)/C1=C\c1ccc(N(C)C)cc1 the results were HCMV NEC inh -104, GIV Gai3 FP 101, Sa growth inh 95 and Sa growth inh second temp 91.
`COC(=O)Cn1cnc2c(cnn2-c2ccc(F)cc2)c1=O` gave HCMV NEC inh -16, GIV Gai3 FP 108, Sa growth inh 97 and Sa growth inh second temp 89.
`CCOc1ccc(C(=O)/C=C/c2cn(CC(O)CN3CCCCCC3)c3ccccc23)cc1` (stereo unspecified) gave HCMV NEC inh -16, GIV Gai3 FP 117, Sa growth inh 75 and Sa growth inh second temp 2.
Screening Cc1ccc(C(=O)COC(=O)C(CC(C)C)NC(=O)C2CCC(C)CC2)cc1 (stereo unspecified) returned HCMV NEC inh -14, GIV Gai3 FP 101, Sa growth inh 101 and Sa growth inh second temp 99.
Screening CN(C)S(=O)(=O)c1ccc(C(=O)N2CCCCCCC2)cc1 returned HCMV NEC inh -15, Sa growth inh 90 and Sa growth inh second temp 83.
For CC(=O)c1ccc(N2CCN(S(=O)(=O)c3ccc(-c4cc(C)no4)s3)CC2)cc1 the results were GIV Gai3 FP 100, Sa growth inh 92 and Sa growth inh second temp 90.
For O=C1CCC(C(=O)OCc2nnc(-c3ccccc3)o2)=NN1 the results were HCMV NEC inh -18, Sa growth inh 81 and Sa growth inh second temp 95.
For Cc1c(Cl)cccc1NC(=O)c1ccc2c(c1)CCCN2S(C)(=O)=O the results were HCMV NEC inh -15, GIV Gai3 FP 102, Sa growth inh 112 and Sa growth inh second temp 91.
Screening CSc1nnc(CCNC(=O)N2CCOCC2)n1C(C)C returned HCMV NEC inh 8, GIV Gai3 FP 102, Sa growth inh 106 and Sa growth inh second temp 88.
CC(=O)c1cccc(NC(=O)CCc2nc3cccnc3n2Cc2cccs2)c1 was read as HCMV NEC inh -23, GIV Gai3 FP 137, Sa growth inh 114 and Sa growth inh second temp 83.
CN(C)/C=C/C(=O)c1ccccc1 was read as HCMV NEC inh -46, GIV Gai3 FP 108, Sa growth inh 84 and Sa growth inh second temp 84.
CN(C)/C=C1\COc2ccc(Cl)cc2C1=O was read as HCMV NEC inh -54, GIV Gai3 FP 106, Sa growth inh 95 and Sa growth inh second temp 80.
`C=CCn1c(C2CC(=O)N(c3cccc(C)c3)C2)nc2ccccc21` (stereo unspecified) gave HCMV NEC inh -13, Sa growth inh 94 and Sa growth inh second temp 84.
`NC1=NC(c2ccccc2)CC(=O)N1` (stereo unspecified) gave GIV Gai3 FP 106, Sa growth inh 97 and Sa growth inh second temp 95.
Screening C=Cc1ccc(Cn2nc3n(CCC)c(=O)c4ccc(Cl)cc4n3c2=O)cc1 returned HCMV NEC inh 10 and GIV Gai3 FP 99.
For O=S(=O)(Nc1ccc(O)c2ccccc12)c1ccccc1 the results were HCMV NEC inh -18, GIV Gai3 FP 97, Sa growth inh 5.0* and Sa growth inh second temp 2.3*.
Screening Cc1ccc(-n2c(=O)c3c(cnn3C)n(CC(=O)Nc3cccc(Cl)c3)c2=O)cc1 returned HCMV NEC inh 9, GIV Gai3 FP 98, Sa growth inh 110 and Sa growth inh second temp 85.
For Cc1ccc(NC(=S)Nc2cc(C(=O)N3CCC4(CC3)OCCO4)ccc2N2CC3CC(C2)c2cccc(=O)n2C3)cc1 (stereo unspecified) the results were HCMV NEC inh -20, GIV Gai3 FP 100, Sa growth inh 90 and Sa growth inh second temp 80.
`Cc1ccccc1-c1noc(-c2ccc[nH]c2=O)n1` gave HCMV NEC inh -65 and GIV Gai3 FP 148.
For Cc1cccc(-n2c(SCC(=O)Nc3ccccc3Cl)nc3n[nH]c(C)c3c2=N)c1 the results were GIV Gai3 FP 100, Sa growth inh 97 and Sa growth inh second temp 83.
For Cc1cccc(N2CCN(C(=O)c3ccc(NC(=O)c4nsc5ccccc45)cc3)CC2)c1C the results were GIV Gai3 FP 108, Sa growth inh 125 and Sa growth inh second temp 98.

Part of the list above in order of molar mass, smallest number first:
For O=S(=O)(Nc1ccc(O)c2ccccc12)c1ccccc1 the results were HCMV NEC inh -18, GIV Gai3 FP 97, Sa growth inh 5.0* and Sa growth inh second temp 2.3*.
Screening Cc1ccc(-n2c(=O)c3c(cnn3C)n(CC(=O)Nc3cccc(Cl)c3)c2=O)cc1 returned HCMV NEC inh 9, GIV Gai3 FP 98, Sa growth inh 110 and Sa growth inh second temp 85.
For Cc1cccc(N2CCN(C(=O)c3ccc(NC(=O)c4nsc5ccccc45)cc3)CC2)c1C the results were GIV Gai3 FP 108, Sa growth inh 125 and Sa growth inh second temp 98.
For Cc1ccc(NC(=S)Nc2cc(C(=O)N3CCC4(CC3)OCCO4)ccc2N2CC3CC(C2)c2cccc(=O)n2C3)cc1 (stereo unspecified) the results were HCMV NEC inh -20, GIV Gai3 FP 100, Sa growth inh 90 and Sa growth inh second temp 80.
